Screens from PubChem BioAssay.
CSC inhib – blocks cancer stem cells; cancer stem cell-like cells viability, luminescence; inhibition, % at 7.5 µM; 1.1% of 300,000 active; AID 2717;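 active means mean at 75% or more and at least half the replicates too; tested in HMLE shEcad cells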;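 further: 0% = median of negative and 100% = median of positive control wells; the first replicate is given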
UUG fidelity – modulators of start codon recognition fidelity in yeast | AID 602363 | activity score, % at 18.7 µM | S. cerevisiae UUG-firefly luciferase reporter, luminescence/redox ratio | 0.13% of 350,000 active;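 active means replicate mean at a twofold rise or more, about +100% in these data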;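 further: firefly luciferase made from a UUG start codon reports start codon fidelity; reporter light over untreated wells divided by growth signal over untreated wells; some hits fall short of that in this replicate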
MT1-MMP act inh – inhibitors of human MT1-MMP activation. GFP/RFP ratio change, % at 20 µM. P50281. 0.061% of 360,000 active. AID 651647. HT1080 RFP-PRO-GFP cells, GFP/RFP ratio fluorescence, overnight; percent of plate control window, DMSO zero;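 active means GFP/RFP ratio change of at least 30% with cell ATP level not reduced by more than half and red fluorescence within 50% of control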; further: strong numbers were not always called active
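Material – HT1080 RFP-PRO-GFP cells · Control set – DMSO wells and RFP-L50D-GFP cells · Incubation – overnight cell settling, then overnight compound exposure, 37 °C, 5% CO2 · Compound dosing – single-point 20 µM compound, 1% DMSO · Read-out – GFP/RFP fluorescence ratio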
Rce1 inh – yeast Ras-converting enzyme inhibition; yeast membranes, quenched prenylated peptide cleavage fluorescence; calls only; 0.27% of 290,000 active; AID 2563;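 active means fall in fluorescence gain of 50% or more versus controls, with final raw signal at or below 3038400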;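 further: plate controls were neutral control wells for no effect and wells lacking membranes for full effect; tested at 10 µM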
Target sequence (Q03530 whole entry, looked up): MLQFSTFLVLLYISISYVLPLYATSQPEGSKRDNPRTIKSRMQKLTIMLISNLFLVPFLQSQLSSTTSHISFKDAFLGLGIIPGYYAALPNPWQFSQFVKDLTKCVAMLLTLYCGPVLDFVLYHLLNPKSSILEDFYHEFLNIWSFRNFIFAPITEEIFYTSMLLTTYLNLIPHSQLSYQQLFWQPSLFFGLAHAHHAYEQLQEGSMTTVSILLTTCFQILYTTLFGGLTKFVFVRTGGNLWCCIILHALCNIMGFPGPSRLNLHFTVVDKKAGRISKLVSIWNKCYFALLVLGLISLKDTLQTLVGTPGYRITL
eIF4H inh – inhibitors of RNA binding by human eIF4H. Q15056. eIF4H fluorescence polarization binding assay. inhibition, % at 35 µM. 0.94% of 290,000 active;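 active means 50% or more with normal probe brightness, or confirmed in later tests; about a fifth of its hits are not listed in these tables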;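 further: calls also rest on retests at 20 µM and on dose response follow-up; 0% = protein and probe with vehicle and 100% = probe without protein; strong numbers were not always called active; many hits fall short of the cut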
PABP FP inh – blocks human PABP binding to poly(A) RNA; P11940; inhibition, % at 35 µM; fluorescence polarization; 1% of 290,000 active;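 active means 50% or more with normal probe brightness, or confirmed in later tests; about a fifth of its hits are not listed in these tables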;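 further: calls also rest on retests at 20 µM and on dose response follow-up; controls were probe without protein and protein plus probe with vehicle; some compounds called inactive have numbers as strong as hits; many hits fall short of the cut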
Env fusion inh – inhibitors of HIV Env-mediated cell fusion | HeLa-JRFL Env/CEM21 cell fusion, luciferase | AID 651610 | inhibition, % at 12.3 µM | 1.1% of 360,000 active;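 active means mean replicate inhibition score of at least 50 and every replicate individually at or above 50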;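 further: 0% = plate neutral controls and 100% = maraviroc near 300 nM; one replicate is shown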
MT1-MMP act inh RFP – second read-out of MT1-MMP act inh, no call of its own (marks repeat the call); RFP signal change, %; measured here: RFP expression control read;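 0 = vehicle wells; hits needed this value within 50% of zero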
* = called active by the depositor; i = inactive; · = not tested or not shown; & = joins results of further samples.

SMILES	CSC inhib	UUG fidelity	MT1-MMP act inh	MT1-MMP act inh RFP	Rce1 inh	eIF4H inh	PABP FP inh	Env fusion inh
O=C(CC(=O)N/N=C/c1ccccc1O)NCc1cccnc1	8.7	-20.4	5.1	3.1	i	2.9	-0.7	16.6
CNC(=S)NCCCc1ccccc1	-8.4	·	0.5	3.4	i	3.9	3.6	-62.2
O=C(/C=C/N1CCOCC1)c1cc2ccccc2o1	-11.1	·	-24.8	1.2	i	-10.5	-9.4	·
O=C(Nc1cccc(C(F)(F)F)c1)Oc1ccccc1N1CCOCC1	-1.4	-19.4	1.1	5.1	i	-1.9	-8.2	14.2
Cc1ccc(C(=O)N/C(=C/c2ccc(-c3cccc([N+](=O)[O-])c3)o2)C(=O)NC(C)(C)C)cc1	-1.1	·	-2.4	-5.2	i	3.4	3.2	-20.9
O=C(/C=C/c1ccc2c(c1)OCO2)Nc1c(C(=O)O)[nH]c2ccccc12	-11.4	-2.4	5.0	9.7	i	5.2	-9.9	·
CCOC(=O)CNc1nc(-c2ccncc2)nc2ccccc12	2.3	2.4	0.4	-8.9	·	7.3	-5.2	4.9
CCc1nc(NCCO)c(C#N)c2c1CCCC2	-25.4	·	-6.7	-9.6	i	13.8	-12.6	13.6
CCn1cc(C(=O)O)c(=O)c2cc(F)c(N3CCN(C(=S)NC(=O)c4c(OC)cccc4OC)CC3)cc21	·	-3.2	-2.7	-2.3	i	4.4	2.3	-1.1
COc1cccc(-n2c(C)c(C(C)=O)c(C(C)=O)c2C)c1	-3.4	-10.4	0.1	3.4	i	-3.5	-0.1	·
CCCCn1nnnc1C(c1ccc(OC)cc1)N1CCN(C/C=C/c2ccccc2)CC1 (configuration not stated)	·	3.3	3.2	-0.7	·	·	·	-7.4
CC(C)(C)c1ccc(/C=C(\c2nc3ccccc3[nH]2)S(=O)(=O)c2ccccc2)cc1	125.4*	-13.1	-29.4	-37.6	i	·	·	·
Cc1cccc(-c2noc(CCCC(=O)Nc3ccc(C(N)=O)cc3)n2)c1	-9.4	-13.0	-1.6	1.8	i	3.6	-1.5	6.5
CCOC(=O)c1[nH]c2ccc(Br)cc2c1NC(=O)CCN1CCOCC1	-5.0	-8.5	-1.0	-1.5	i	-6.0	7.1	-10.9
Cc1ccccc1S(=O)Cc1ccc(C(=O)NC2CCN(Cc3ccccc3)CC2)o1 (configuration not stated)	-6.0	-10.5	-0.2	1.0	i	-2.9	16.9	7.1

Random excerpt: two compounds from above
SMILES	CSC inhib	UUG fidelity	MT1-MMP act inh	MT1-MMP act inh RFP	Rce1 inh	eIF4H inh	PABP FP inh	Env fusion inh
O=C(Nc1cccc(C(F)(F)F)c1)Oc1ccccc1N1CCOCC1	-1.4	-19.4	1.1	5.1	i	-1.9	-8.2	14.2
CCOC(=O)c1[nH]c2ccc(Br)cc2c1NC(=O)CCN1CCOCC1	-5.0	-8.5	-1.0	-1.5	i	-6.0	7.1	-10.9

The list continues:
SMILES	CSC inhib	UUG fidelity	MT1-MMP act inh	MT1-MMP act inh RFP	Rce1 inh	eIF4H inh	PABP FP inh	Env fusion inh
CC1C(=O)Nc2ccccc2N1C(=O)C1CC1 (configuration not stated)	-23.3	-22.4	2.9	4.1	i	-0.3	2.7	·
CSc1ccc(OCC(=O)Nc2ccc(N3CCOCC3)c(Cl)c2)cc1	·	-14.4	-2.5	2.0	i	-13.4	-3.0	-0.2
Cc1c(C(=O)c2ccccc2C(=O)O)sc2ccccc12	-2.7	-12.7	-0.1	1.2	i	-2.3	-11.7	-3.2
CCN(c1ccccc1)S(=O)(=O)c1cc(CN2C(=O)c3cccnc3C2=O)ccc1OC	-4.8	26.8	0.8	3.5	i	-7.8	-2.0	1.0
CCC(=O)Nc1ccc2c(c1)nc(CCN1CCC(C)CC1)n2C	-10.0	-10.5	0.7	6.1	i	-6.3	-5.1	-5.0
COC(=O)c1cc(Cl)c(NC(=O)/C=C/c2ccc(OC)cc2)cc1OC	18.3	·	5.1	8.1	i	-10.0	-8.1	-17.1
COc1cc(NC(=O)Cc2ccccc2)ccc1NC(=O)c1ccco1	2.7	-16.7	3.6	4.0	i	-5.1	-1.5	-57.0
Cc1snc(S(=O)(=O)/C(C#N)=N/Nc2cccc(C(F)(F)F)c2)c1C#N	88.1*	0.7	10.2	-11.0	i	-3.6	11.6	·
CC1=C(C(=O)OCc2ccccc2)C(c2cccc3ccccc23)NC(=O)N1CCCC(=O)O (configuration not stated)	19.0	11.7	0.4	0.2	·	·	·	20.4
CCOc1ccccc1NC(=O)COC(=O)c1cc(C(=O)OC)cc([N+](=O)[O-])c1	1.3	·	6.3	2.8	i	3.9	-1.4	5.7
Cc1noc(C)c1NC(=O)Nc1ccc2c(c1)C(=O)N([C@H](C)CO)C[C@H](C)[C@@H](CN(C)S(=O)(=O)c1cccs1)O2	-2.5	4.1&14.5	-1.3	3.2	·	·	·	22.2
Cc1ccc(NC(=O)c2ncn(CCCN(CCCn3cnc(C(=O)Nc4ccc(C)c(C)c4)n3)Cc3ccc4[nH]ccc4c3)n2)cc1C	·	-1.8	5.1	1.4	·	·	·	36.8
Nc1cc(N)nc(SCC(=O)Nc2cccc(S(=O)(=O)N3CCCCC3)c2)n1	·	-8.9	6.4	-0.5	·	·	·	-44.2
Cc1nn(Cc2ccc(F)cc2)c(Cl)c1/C=N/NC(=O)c1cccnc1	-5.8	-17.3	1.5	3.5	i	-9.3	-8.6	20.2
COc1ccc(-c2cc(C(=O)N3CCN(S(=O)(=O)c4ccc(C)cc4)CC3)[nH]n2)cc1	·	-13.7	3.3	-4.7	i	-13.4	5.5	-23.5
CC(C)C(=O)Nc1cccc(NC(=O)c2cccc(Br)c2)c1	17.3	·	3.9	0.6	i	20.6	4.7	22.3
Nc1nnc(Cc2ccc(Cl)cc2)s1	-9.2	2.4	-4.7	-5.4	i	5.0	2.5	·
Cc1ccc(OCCOC(=O)c2sc(=S)n(C)c2C)cc1	7.1	-40.9	2.1	2.5	i	-5.4	-1.9	-4.6
Cc1cc(OCCCN2CCCC2)ccc1Cl	3.0	-7.5	7.3	3.9	i	27.8	21.4	3.8
Cc1ccc(/C(N)=N/OC(=O)c2ccco2)cc1	-5.3	-21.3	-0.2	0.2	i	1.5	4.5	-312.1
Cc1cc(C(F)F)n2ncc(C(=O)O)c2n1	-15.2	-7.5	-0.3	1.2	i	-9.5	-7.6	·
CSc1ccc(S(=O)(=O)NCC(=O)OCC(=O)N(Cc2ccccc2)C(C)C)cc1[N+](=O)[O-]	·	·	0.5	-0.2	i	·	·	-1.8
O=C(Oc1ccc2c3c(c(=O)oc2c1)CCC3)c1ccco1	·	-12.2	-7.5	-1.3	·	4.8	-6.6	·
CC(=O)Oc1ccc(-c2csc(Nc3ccccn3)n2)cc1	·	-25.6	-4.8	-12.4	·	·	·	-146.4
COc1ccc(/C(N)=N/OC(=O)Cc2ccccc2[N+](=O)[O-])cc1	-13.8	·	-1.2	-0.3	i	-1.5	6.9	3.4
O=C(NCc1ccco1)c1ccc(C(=O)NCc2ccco2)s1	-2.0	-5.6	-6.0	0.6	i	-1.8	4.9	8.5
O=C(NN=Cc1ccccc1OC(F)F)c1cccc(S(=O)(=O)N2CCCC2)c1	4.6	2.4	-2.4	1.2	·	·	·	-4.5
CCn1c(SCC(=O)NC(=O)NC(C)(C)C)nc2ccccc21	-13.1	·	4.2	0.5	i	3.4	6.4	8.0
O=C(O)CSc1nnc(COc2ccc([N+](=O)[O-])cc2)n1-c1ccccc1	-1.5	-22.2	-2.7	-1.6	i	3.9	-3.4	12.8
COc1cc(NC(=O)c2cccc(C)c2)ccc1NC(=O)c1cc2ccccc2o1	15.9	-15.2	-9.4	-1.0	i	-5.0	-3.6	-23.9
N=c1c(S(=O)(=O)c2ccccc2)cc2c(=O)n3ccccc3nc2n1CC1CCCO1 (configuration not stated)	8.9	-10.1	0.5	0.0	·	0.5	12.4	-349.0
COCCCNC(=O)[C@H](Cc1c[nH]c2ccccc12)NC(=O)OCc1ccccc1	-11.5	-9.5	-1.6	3.3	i	-4.1	8.1	3.7
O=S1(=O)CCC(NS(=O)(=O)c2cccc3cccnc23)C1 (configuration not stated)	7.0	-10.2	-0.9	2.4	i	3.0	-2.2	-10.5
O=C(NCC1CCCO1)c1ccc2c(=O)n(CCc3ccccc3)c(=O)[nH]c2c1 (configuration not stated)	5.4	-6.6	-0.3	-4.4	i	-2.9	-6.4	-30.3
Cc1ccc(C(c2sc3nc(C)nn3c2O)N2CC(C)OC(C)C2)cc1 (configuration not stated)	5.9	1.3	-0.1	2.5	i	-4.1	7.0	-1.8
CSCc1ccc(C(=O)Nc2cccc(C)c2C)cc1	1.4	·	-1.5	-1.2	i	-4.8	-5.0	-32.8
CCOCCCNC(=O)c1ccc(NC(=O)C2=CSCCO2)cc1	15.2	1.8	0.4	4.0	i	-0.9	9.1	-14.8
COC(=O)c1ccccc1NC(=S)N1CCN(c2ccc(OC)cc2)CC1	0.4	·	-0.9	3.2	i	0.2	-2.2	7.9
COc1ccc(-c2cc(=O)c3c(OC)c(OC)c(OC)c(OC)c3o2)cc1OC	-9.6	2.6	0.8	0.5	i	9.3&-9.6	-2.7&5.4	·
CC(=O)c1nnn(-c2nc(N)nc(N(c3ccccc3)c3ccccc3)n2)c1C	-3.4	24.8	-2.6	-7.4	i	-2.0	-4.5	-17.0
O=C(CCN1C(=O)c2ccccc2S1(=O)=O)Nc1ccc(F)c(F)c1F	-18.7	-12.4	-1.1	-1.7	i	·	·	-3.0
CCCCNC(=S)Nc1ccc(C(F)(F)F)cc1	33.0	-23.4	2.9	-0.9	i	-9.5	-0.5	-19.2
O=C(Nc1nnc(C2=COCCO2)o1)C1CCCCC1	-6.4	44.5	2.0	1.3	i	-3.5	2.6	13.3
O=C(NCc1cccc(Br)c1)c1cc(-c2ccccc2)nn1CC1CC(c2cccc([N+](=O)[O-])c2)=NO1 (configuration not stated)	-9.9	-11.3	3.8	-1.6	i	·	·	1.4
COc1ccc(CCNC(=O)COC(=O)c2cncc(Br)c2)cc1OC	4.7	-10.4	-1.2	2.2	·	·	·	·

Full records, quoted from the list:
O=S1(=O)CCC(NS(=O)(=O)c2cccc3cccnc23)C1 (configuration not stated) is listed as CSC inhib: 7.0; UUG fidelity: -10.2; MT1-MMP act inh: -0.9; MT1-MMP act inh RFP: 2.4; Rce1 inh: i; eIF4H inh: 3.0; PABP FP inh: -2.2; Env fusion inh: -10.5
CCCCNC(=S)Nc1ccc(C(F)(F)F)cc1 is listed as CSC inhib: 33.0; UUG fidelity: -23.4; MT1-MMP act inh: 2.9; MT1-MMP act inh RFP: -0.9; Rce1 inh: i; eIF4H inh: -9.5; PABP FP inh: -0.5; Env fusion inh: -19.2

(continued)
SMILES	CSC inhib	UUG fidelity	MT1-MMP act inh	MT1-MMP act inh RFP	Rce1 inh	eIF4H inh	PABP FP inh	Env fusion inh
O=C(NCCOC(=O)c1ccc([N+](=O)[O-])cc1)c1cccnc1	-9.8	·	-0.9	-8.7	i	-2.8	8.5	0.4
Cc1ccc(C(=O)CC(c2cccs2)S(=O)(=O)c2ccc(C)cc2)cc1 (configuration not stated)	4.0	·	-1.9	3.1	i	5.3	-3.3	-14.7
COCOc1ccc(C2CC(=O)c3c(OCOC)cc(OCOC)cc3O2)cc1 (configuration not stated)	14.4	0.2	-3.0	-5.7	i	·	·	·
Cc1cc(=O)n2[nH]c(-c3cccnc3)nc2n1	·	·	·	·	i	0.7	-3.8	·
O=C(c1ccc(Cl)c(S(=O)(=O)N2CCCC2)c1)N1CCN(c2ccccc2F)CC1	3.6	·	-16.3	-20.5	i	5.7	-12.4	11.1
CC(C)(C)OC(=O)N1CCC[C@H]1C(=O)N/N=C/c1ccc2ncccc2c1	-6.3	·	1.0	-1.2	i	-1.2	8.7	7.8
O=C(CCNC(=O)c1ccc([N+](=O)[O-])cc1)NC1CCCCCC1	-10.5	5.0	0.1	-3.7	·	·	·	1.2
COc1ccc(C2=CN(Cc3ccccc3)C(c3ccccc3)CC2=O)cc1 (configuration not stated)	·	-5.1	-1.2	-0.3	·	·	·	-23.2
O=C(CSc1nnc(-c2ccncc2)o1)c1ccc2c(c1)OCCO2	-5.8	·	-0.5	0.5	i	-3.1	-3.9	2.5
